miR-21 reporter = raises the signal of a miR-21 reporter | HeLa miR-21 FLuc reporter, luciferase, 48 h | Potency, µM (titrated, usually from 38.3 µM), for inactives: at the top dose reporter change, positive = more light | 340,000 tested, under 10 active; active = well fitted rising curve with a large enough effect; inconclusive = small, poorly fitted or top-dose-only effect; inactive = no such curve, though single readings can be large or run the other way;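 also: % of control where 0% means no effect; miR-21 action dims this reporter so a rising signal means less miR-21 action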
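HeLa cells stably expressing CMV-driven firefly luciferase with a downstream miR-21 binding sequence, endogenously expressing miR-21, were treated with titrations (up to about 40uM final) for 48 hours at 37 degree Celsius. Luciferase luminescence was read after lysis.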
Rango release inh = inhibition of RanGTP-driven Rango-importin beta dissociation; O95149+P62826; Biochemical FRET Rango-importin beta, RanGTP-induced dissociation; Potency, µM (series often up to 46.1 µM), inactives show top-dose activity change, negative = inhibition; 0.071% of 340,000 active; AID 540253; active means falling FRET ratio curve, often poorly fitted, with flat reads before Ran was added; inconclusive means other falling curves, or compound fluorescence or quenching; inactive means flat or rising ratio curve;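 also: potency is read from the fitted curve at half-maximal effect; % of control where 0% means no effect; nearly all actives have a fitted effect of over 45% in size; -100% = wells without RanGTP and RCC1; the record marks most hits as doubtful in a second field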
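Two FRET readings bracket the reaction: one 5 min after compound meets Rango–importin beta, another 45 min after RanGTP-RCC1 (0.6 uM Ran, 0.2 uM RCC1, 2 mM GTP) is added. Only the second defines inhibition.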
Rango-impB inh = Rango-importin beta binding inhibition; Rango CFP/YFP FRET sensor + importin beta, 45 min; Potency, µM (titrated, usually from 92.2 µM), for the others: at the top dose inhibition of complex formation; 0.031% of 340,000 active; active = rising FRET ratio curve, often small or poorly fitted; inconclusive = mostly compound fluorescence or quenching in the first reads; inactive = flat curves in all reads;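 also: potency is read from the fitted curve at half-maximal effect; 0% = DMSO wells and 100% = buffer wells lacking importin beta; nearly all actives have a fitted effect of over 15% in size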
Target sequence (Q14974 whole entry, looked up): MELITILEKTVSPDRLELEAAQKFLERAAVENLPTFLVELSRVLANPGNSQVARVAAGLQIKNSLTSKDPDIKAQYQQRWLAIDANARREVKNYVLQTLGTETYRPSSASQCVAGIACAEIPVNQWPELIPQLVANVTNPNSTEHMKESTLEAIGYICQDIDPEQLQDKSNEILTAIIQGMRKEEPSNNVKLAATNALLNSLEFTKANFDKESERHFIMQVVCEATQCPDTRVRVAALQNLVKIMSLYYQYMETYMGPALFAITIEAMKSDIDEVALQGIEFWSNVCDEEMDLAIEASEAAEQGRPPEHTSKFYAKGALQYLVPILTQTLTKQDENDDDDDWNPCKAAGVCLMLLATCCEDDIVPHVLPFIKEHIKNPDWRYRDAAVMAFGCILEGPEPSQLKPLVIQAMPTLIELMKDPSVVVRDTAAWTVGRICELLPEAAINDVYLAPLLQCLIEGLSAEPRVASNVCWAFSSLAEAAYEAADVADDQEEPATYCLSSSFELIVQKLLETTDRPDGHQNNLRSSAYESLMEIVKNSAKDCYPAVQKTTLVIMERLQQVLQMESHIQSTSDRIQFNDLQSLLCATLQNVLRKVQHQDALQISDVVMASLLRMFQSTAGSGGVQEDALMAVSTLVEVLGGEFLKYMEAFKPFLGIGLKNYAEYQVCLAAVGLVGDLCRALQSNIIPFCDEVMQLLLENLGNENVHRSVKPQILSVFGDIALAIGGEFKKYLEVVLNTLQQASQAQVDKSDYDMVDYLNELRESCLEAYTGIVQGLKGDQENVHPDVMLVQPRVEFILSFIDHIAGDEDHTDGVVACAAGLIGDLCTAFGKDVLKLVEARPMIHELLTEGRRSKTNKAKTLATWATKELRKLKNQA
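FRET biosensor Rango (snurportin 1 IBB between N-terminal EYFP and C-terminal Cerulean), 50 nM in PBS/1 mM DTT/0.02% Tween-20/0.1% BSA, preincubated 5 min RT with compound; 0.125 microM importin beta added, 45 min RT, CFP/YFP FRET ratio read.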
GLA inh pH 4.5 = alpha-galactosidase A (human) inhibition, pH 4.5; P06280; purified enzyme, 4-MU-alpha-Gal fluorescence, pH 4.5; activity change, negative = inhibition, % at 105 µM; 230,000 tested, under 10 active; AID 1467; inconclusive = small, poorly fitted or top-dose-only inhibition, or a rising curve; inactive = flat fitted curve, though single readings scatter; no compound was filed as active;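 also: 0% = full activity with enzyme and -100% = basal without enzyme; dose as in the result columns while the protocol names 77 µM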
Numbers without * were called inactive; ? = inconclusive; nt = no result given. An excerpt; rates above refer to the full screens.

Rango release inh	Rango-impB inh	GLA inh pH 4.5	canonical_smiles	miR-21 reporter
9.2%	-2.4%	nt	Cc1ccccc1N(CC(=O)NC(C)(C)C)C(=O)CCC(=O)Nc1nccs1	0.1%
-24.8%	?	-2.3	CNC(=O)C1=C(C)n2c(nc3ccccc32)NC1c1ccc(OC)cc1 (configuration not stated)	-16.0%
-13.3%	3.1%	3.9	CCOc1ccc2c(c1)n(CO)c(=S)n2CO	-5.4%
-25.8%	-2.6%	5.0	CN(C)S(=O)(=O)NC(c1ccccc1)c1ccccc1	0.4%
8.0%	0.0%	nt	O=C(COc1ccc2c3c(c(=O)oc2c1)CCC3)NCc1ccncc1	3.3%
-4.9%	-0.8%	nt	COc1ccccc1/C=C1\SC(=S)N(CCC(=O)N2CCCCC2CCO)C1=O (configuration not stated)	3.7%
1.9%	-0.5%	5.6	O=C(CCC1CCCN(C(=O)Cc2ccc(F)cc2)C1)N1CCN(c2ccccn2)CC1 (configuration not stated)	7.2%
2.6%	0.0%	1.9	O=C(Nc1ccc(S(=O)(=O)N2CCCC2)cc1)C1CCCN1C(=O)c1cccs1 (configuration not stated)	5.2%
4.4%	7.7%	-1.4	Nc1nc(NCc2ccccc2)nc(NCc2ccccc2)c1[N+](=O)[O-]	-12.4%
1.2%	-0.1%	-5.9	COc1ccc(CC(=O)Nc2ccc3c(c2)CCC3)cc1	-37.3%
0.4%	-1.1%	-5.6	O=C(CSCc1ccc(Cl)cc1)Nc1ccc(S(=O)(=O)N2CCOCC2)cc1	-0.3%
-12.2%	?	9.2	S=C(NCc1cccnc1)Nc1cccc(Cl)c1	-0.7%
-1.4%	1.2%	nt	O=C(O)c1ccc(CN2C(=O)c3ccc(Oc4ccc([N+](=O)[O-])cc4)cc3C2=O)cc1	-0.7%
7.5%	0.2%	-3.8	Cc1noc(C)c1COC(=O)c1cc2ccccc2cc1O	-10.7%
-23.8%	1.4%	-0.6	O=C1CCC(=O)N1c1ccc(NC2CCN(Cc3ccccc3)CC2)c([N+](=O)[O-])c1	0.3%
10.5%	8.9%	nt	CC(Cc1ccccc1)N1C(=O)c2cccc([N+](=O)[O-])c2C1=O (configuration not stated)	-0.3%
4.1%	-7.5%	3.7	COc1cc(-n2nnnc2SC)c(OC)cc1Cl	-11.4%
-3.8%	-3.3%	5.2	O=C(CNC(=O)c1ccc(-c2ccccc2)cc1)OCc1ccc(Br)cc1	-48.8%
-19.2%	?	2.5	CCOC(=O)CSc1nc2cc(OCC)ccc2cc1C#N	-70.0%
3.2%	4.1%	-4.4	CN1CCN(C(=O)Nc2cccc(-c3ccccc3)c2)CC1	2.8%
0.9%	-0.3%	nt	CCCc1nnc(SCC(=O)Nc2ccc(Cl)cc2Cl)o1	-27.0%
25.6%	-2.1%	-9.6	CCN(CC)CCNC(=O)c1ccc(NC(=O)c2cccc(S(=O)(=O)Nc3ccc(C)cc3)c2)cc1	-0.1%
-3.9%	1.6%	-3.1	Cc1nc(Nc2c(Cl)cccc2Cl)sc1C(=O)Nc1ccccc1	-2.6%
7.5%	1.5%	6.7	CC(NC(=O)Cn1nc(C(=O)O)c2ccccc2c1=O)C12CC3CC(CC(C3)C1)C2 (configuration not stated)	-22.3%
9.8%	0.4%	11.9	Cc1sc2nc(CN3CCOCC3)nc(N3CCOCC3)c2c1C	-3.3%
-18.7%	6.1%	0.1	O=C(CSc1nnc(-c2ccc(S(=O)(=O)N3CCCC3)cc2)o1)NCc1ccccc1	-3.6%
1.1%	-4.0%	nt	Cc1ccc(OCCSc2ncccn2)c(C)c1	-42.4%
-5.4%	-1.0%	5.2	CC(C)Cn1cnc2c(=O)oc3ccccc3c21	-22.2%
-2.6%	1.1%	-4.4	CC(C)N=C1SCC(C)(/C=N/O)S1 (configuration not stated)	1.2%
-1.2%	0.5%	-10.0	Cn1c(Cc2ccccc2)nnc1SCc1cc(=O)n2ccsc2n1	-2.4%

Next compounds follow.
Rango release inh	Rango-impB inh	GLA inh pH 4.5	canonical_smiles	miR-21 reporter
-8.2%	2.6%	nt	O=C(CSc1ccccc1)N1CCN(S(=O)(=O)c2cccs2)CC1	-6.7%
14.9%	0.1%	-6.4	CC(C)(CO)CNC(=O)CCc1nnc(C2(c3ccc(Cl)cc3)CCC2)o1	1.7%
-8.5%	0.0%	1.8	COc1cc2c(cc1NC(=O)C(C)NCc1ccccc1)oc1ccccc12 (configuration not stated)	-3.5%
-11.3%	-1.2%	nt	Cc1ccc(OCc2cc(C(=O)NCC3COCCO3)no2)cc1C (configuration not stated)	-13.0%
-12.5%	0.5%	-5.3	Cc1nc2cc(NC(=O)N3c4ccccc4CC3C)ccc2o1 (configuration not stated)	-56.3%
-5.8%	-2.2%	-5.7	Cc1cc(=O)[nH]c(SCC(=O)NCC2CCCCC2)c1C#N	-3.4%
-4.5%	0.3%	nt	CCn1cc(S(=O)(=O)N2CCN(c3ccc(Cl)cc3)CC2)cn1	8.9%
0.1%	0.3%	-18.2	Cc1ccc(S(=O)(=O)N2CCN(C(=O)C3=COCCO3)CC2)cc1C	-2.1%
?	?	nt	COc1ccc2nc3cc(Cl)ccc3c(Nc3ccc(O)c(CN4CCN(C)CC4)c3)c2c1	nt
-2.7%	0.1%	nt	CCOC(=O)C1CCCN(C(=O)c2cc(S(=O)(=O)N3CCCCCC3)ccc2OC)C1 (configuration not stated)	nt
nt	nt	3.3	COC(=O)N[C@H](CC(C)=O)c1ccccc1	3.5%
0.6%	-1.6%	1.2	COc1cccc(NC(=O)COC(=O)c2cccnc2)c1	-1.7%
9.5%	?	nt	COc1cccc(OCC(=O)N(C)Cc2nc(-c3ccccc3)no2)c1	-9.8%
2.1%	0.0%	1.1	O=C(C1=C(O)C(=O)N(c2ccccc2)C1c1ccc([N+](=O)[O-])cc1)c1cccs1 (configuration not stated)	4.9%
-4.9%	-0.4%	nt	CCOc1ccc(CCNC(=O)COC(=O)/C=C/c2ccc(OC(F)F)c(OC)c2)cc1OCC	nt
6.8%	4.4%	nt	COCCn1c(SCC(=O)NCc2ccccc2)nc2ccccc21	0.8%
11.0%	1.6%	3.3	COn1c(SC2CCCCC2)nc2ccccc2c1=O	-5.6%
?	?	-4.8	CC1=NOC(=O)/C1=C\c1ccc(-c2ccc(Cl)c(C(=O)O)c2)o1	-1.2%
-8.6%	-1.8%	?	O=C(O)c1ccc2c(c1)C(=O)N(Cc1ccccc1)C2=O	-5.8%
-11.9%	7.1%	-9.0	Cc1[nH]nc2c1C1(CCC(c3ccccc3)CC1)C(C#N)=C(N)O2 (configuration not stated)	-3.6%
0.9%	-0.7%	2.6	Cc1ccc(S(=O)(=O)c2n[nH]n3c2nc(=O)c2ccccc23)cc1	-2.5%
21.9%	1.6%	-2.1	O=[N+]([O-])c1cc(S(=O)(=O)NCCN2CCOCC2)ccc1Sc1nnnn1-c1ccccc1	?
-17.6%	?	5.9	C=CCNC(=O)c1ccccc1NC(=O)c1ccccc1	1.0%
1.0%	9.1%	0.0	CCCN1CCN(C(=O)Nc2ccc(C(=O)OCC)cc2)CC1	-31.9%
-5.8%	-1.2%	nt	COc1ccccc1OCCNC(=O)c1cccc(S(=O)(=O)NCc2ccccc2)c1	nt
nt	nt	4.0	Cc1nnc(NC(=O)CSc2ccc3nnc(-c4cccnc4)n3n2)s1	-0.2%
-3.6%	-2.6%	-1.3	CS(=O)(=O)Cc1cc(Sc2ccccc2)nc(-c2ccncc2)n1	-13.6%
nt	nt	1.8	Cc1ccc2nc3sc(-c4nnc(-c5ccccc5[N+](=O)[O-])o4)c(N)c3cc2c1	-10.7%
10.7%	-3.3%	-0.3	Cc1ccc(S(=O)(=O)N(C)c2cc(S(N)(=O)=O)c(C)cc2C)cc1	3.6%
13.3%	1.3%	nt	COc1ccc(C(=O)NCc2cc(C(C)C)no2)cc1OC1CCN(C(C)C)CC1	-1.7%

More records follow:
Rango release inh	Rango-impB inh	GLA inh pH 4.5	canonical_smiles	miR-21 reporter
-8.8%	4.8%	-0.7	CC1CCc2cc(F)cc3c(=O)c(C(=O)O)cn1c23 (configuration not stated)	-10.1%
-16.3%	?	-3.4	C(=N\N(c1ccccc1)c1ccccc1)/c1ccc(N2CCOCC2)s1	-2.0%
6.1%	-1.5%	2.3	CSc1n[nH]c(NC(C)=O)n1	3.9%
-6.1%	-2.1%	-1.6	CC1(C)C(=O)Nc2ccccc2N1C(=O)Cn1ncc(Cl)c(Cl)c1=O	?
-1.7%	?	nt	CCOC(=O)C1=CN(Cc2ccccc2)CCC1=O	nt
-3.4%	5.3%	nt	COc1ccc(CC(CC(=O)O)C(=O)Nc2ccc(Cl)c(Cl)c2)cc1 (configuration not stated)	0.3%
3.8%	2.0%	0.1	CCCn1c(SCC(=O)N2CCCc3ccccc32)nnc1-c1ccccn1	0.3%
-5.4%	-1.1%	-3.8	CC(C)OCCCNC(=O)C(=O)N/N=C/c1ccc(OCc2ccccc2)cc1	-1.3%
-11.5%	?	3.2	Cc1ccsc1/C=C1/NC(=O)N(Cc2ccc(F)cc2)C1=O	-3.9%
-0.2%	0.1%	5.3	Cc1ccc(NC(=O)CSc2nnc(-c3ccccc3C)o2)cc1C	-45.1%
-2.1%	-0.3%	5.3	CCOc1ccccc1C1C(C(N)=O)=C(C)Nc2nc(-c3cccc(C)c3)nn21 (configuration not stated)	-7.5%
-13.8%	-0.4%	nt	Cc1cn([C@H](C(=O)NCCCCCCCCCCC(=O)N2CCN(C(=O)OC(C)(C)C)CC2)[C@@H](C)O)nn1	nt
3.2%	1.2%	1.9	FC(F)(F)c1nnc2ccc(NCc3ccccc3)nn12	4.2%
-4.0%	2.6%	-4.0	Cc1nc2c(C(F)(F)F)cccc2c2c1CCS2	0.1%
0.6%	5.3%	nt	CCOC(=O)c1c[nH]c2c([N+](=O)[O-])cc(OC)cc2c1=O	nt
-0.5%	0.4%	nt	COc1ccc(NC(=O)Nc2cccc3c2O[C@H](CN(C)S(=O)(=O)c2cccs2)[C@@H](C)CN([C@H](C)CO)C3=O)cc1	nt
-1.1%	0.0%	4.6	COC(=O)Cc1c(C)c2c(OCc3nn[nH]n3)cc(C)cc2oc1=O	-1.7%
1.8%	0.6%	4.0	CCOC(=O)c1cc(CC)sc1N1C(=O)CC(Sc2ccccc2C(=O)O)C1=O (configuration not stated)	1.1%
44.8%	8.8%	2.1	O=C1NC(c2ccccc2Cl)Nc2ccccc21 (configuration not stated)	17.0%
-4.3%	-0.6%	nt	Cc1cccc(NC(=O)C2CC(=O)N(c3ccc4c(c3)OCCO4)C2)n1 (configuration not stated)	nt

Ordered by SMILES length (ascending): some entries from above.
Rango release inh	Rango-impB inh	GLA inh pH 4.5	canonical_smiles	miR-21 reporter
6.1%	-1.5%	2.3	CSc1n[nH]c(NC(C)=O)n1	3.9%
-4.0%	2.6%	-4.0	Cc1nc2c(C(F)(F)F)cccc2c2c1CCS2	0.1%
-0.2%	0.1%	5.3	Cc1ccc(NC(=O)CSc2nnc(-c3ccccc3C)o2)cc1C	-45.1%
-16.3%	?	-3.4	C(=N\N(c1ccccc1)c1ccccc1)/c1ccc(N2CCOCC2)s1	-2.0%
-1.1%	0.0%	4.6	COC(=O)Cc1c(C)c2c(OCc3nn[nH]n3)cc(C)cc2oc1=O	-1.7%
-2.1%	-0.3%	5.3	CCOc1ccccc1C1C(C(N)=O)=C(C)Nc2nc(-c3cccc(C)c3)nn21 (configuration not stated)	-7.5%
-13.8%	-0.4%	nt	Cc1cn([C@H](C(=O)NCCCCCCCCCCC(=O)N2CCN(C(=O)OC(C)(C)C)CC2)[C@@H](C)O)nn1	nt

2 successive compounds from above, quoted:
Rango release inh	Rango-impB inh	GLA inh pH 4.5	canonical_smiles	miR-21 reporter
44.8%	8.8%	2.1	O=C1NC(c2ccccc2Cl)Nc2ccccc21 (configuration not stated)	17.0%
-4.3%	-0.6%	nt	Cc1cccc(NC(=O)C2CC(=O)N(c3ccc4c(c3)OCCO4)C2)n1 (configuration not stated)	nt
